Source: PubChem (National Center for Advancing Translational Sciences (NCATS))
LASV entry inh: inhibitors of Lassa virus binding or cell entry; Potency, µM (highest dose often 37.9 µM), for the others: at the highest dose activity change, negative = inhibition, usual class: inhibitors; Lassa virus pseudotype entry inhibition, cell reporter; control for the full effect not named in the record; actives 1.2% (n = 300,000); active means well fitted inhibition curve with a large enough effect; inconclusive means small, poorly fitted or top-dose-only effect, or effect the other way; inactive means flat fitted curve, though single readings scatter; tested in HEK293 cells; further: on the % scale 0 is the no-effect control and ±100 the full control effect; nearly all actives have a fitted effect of over 50% in size; luciferase read-out
NS1 inh: blocks influenza NS1 protein function | S. cerevisiae slowed by influenza A NS1, growth recovery by OD600 | Potency, µM (highest dose often 46.1 µM), inactives show at the top dose activity, positive = more growth | actives 0.4% (n = 270,000) | AID 2326; active means well fitted rising curve with a large enough effect; inconclusive means small, poorly fitted or top-dose-only effect; inactive means no such curve, though single readings can be large or run the other way; further: nearly all actives have a fitted effect of over 50% in size
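Compounds were scored for reversing the slow growth caused by influenza A NS1 in S. cerevisiae, measured by optical density at 600 nm. Assay medium contained 2% galactose at pH 6.0; NS1-free yeast of the same strain were the positive control.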
MARV entry inh: blocks Marburg virus binding to or entry into cells | Marburg virus pseudotyped entry inhibition, cell reporter; control for the full effect not named in the record; about a third of the inactives were read at about 46 µM | Potency, µM (highest dose often 37.8 µM), inactives show top-dose activity change, negative = inhibition, actives largely listed as inhibitors | actives 1.8% (n = 300,000); active = well fitted inhibition curve with a large enough effect; inconclusive = small, poorly fitted or top-dose-only effect, or effect the other way; inactive = flat fitted curve, though single readings scatter; tested in HEK293 cells; about a fifth of its hits are not listed in these tables; further: on the % scale 0 is the no-effect control and ±100 the full control effect; luciferase read-out
Cruzain inh Det: inhibitors of Trypanosoma cruzi cruzain with detergent. P25779. purified cruzain, Z-FR-AMC fluorescence, 0.01% Triton. Potency, µM, for the others: max response, negative = inhibition, actives largely listed as inhibitors. actives 0.43% (n = 200,000). AID 1478;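 further: plate controls were neutral wells for no effect and buffer without enzyme for full effect; nearly all actives have a fitted effect of over 40% in size; top concentration of the series not given in the record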
Target sequence (P25779 123-467 limits assumed): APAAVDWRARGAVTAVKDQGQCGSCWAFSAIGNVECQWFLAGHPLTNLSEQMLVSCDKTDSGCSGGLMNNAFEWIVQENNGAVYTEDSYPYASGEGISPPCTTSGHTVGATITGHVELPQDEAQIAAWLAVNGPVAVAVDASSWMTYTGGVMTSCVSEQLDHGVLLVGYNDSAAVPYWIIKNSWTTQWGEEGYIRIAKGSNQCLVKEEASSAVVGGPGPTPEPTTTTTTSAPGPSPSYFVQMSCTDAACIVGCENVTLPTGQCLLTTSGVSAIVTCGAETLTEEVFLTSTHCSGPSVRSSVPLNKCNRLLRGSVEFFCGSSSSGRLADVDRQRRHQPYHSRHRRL
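Compounds were screened in titration against cruzain (1.5 nM) with 0.01% Triton X-100 to counter colloidal aggregation. Activity was the AMC fluorescence increase over 60 s after adding 2 uM Z-FR-AMC at pH 5.5.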
RE007 growth inh: less growth of the S. pombe RE007 Vpr strain; S. pombe RE007 Vpr strain, BacTiter-Glo ATP luminescence, 24 h; control for the full effect not named in the record; Potency, µM (highest dose often 92.2 µM), without a hit: at the top dose activity change, negative = less growth; actives 0.21% (n = 360,000); active = well fitted falling curve with a large enough effect; inconclusive = small, poorly fitted or top-dose-only effect; inactive = no such curve, though single readings can be large or run the other way;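 further: on the % scale 0 is the no-effect control and ±100 the full control effect; nearly all actives have a fitted effect of over 50% in size; the assay follows cell death caused by Vpr and the record does not say whether a fall means rescue or toxicity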
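Fission yeast RE007 carrying one integrated HIV-1 vpr copy, seeded at OD 0.01 in PMG+AL medium with 23 nL pinned compound. Grown 24 h at 30 degrees; viability read by BacTiter-Glo luminescence after 5 min.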
SARS PLP yeast: SARS-CoV PLP inhibition in yeast; S. cerevisiae expressing SARS-CoV PLpro, growth rescue; control for the full effect not named in the record; Potency, µM (top dose mostly 32.9 µM), for inactives: at the highest dose activity, positive = growth rescue; actives 0.19% (n = 330,000); AID 485353; active means well fitted rising curve with a large enough effect; inconclusive means small, poorly fitted or top-dose-only effect; inactive means no such curve, though single readings can be large or run the other way; further: 0% is about no effect; nearly all actives have a fitted effect of over 55% in size; growth read by luminescence after 48 h
2A StopGo: lowers the luciferase signal of an FMDV 2A StopGo reporter. human cells with a luciferase reporter of 2A StopGo recoding; control for the full effect not named in the record. Potency, µM (titrated, usually from 57.9 µM), for inactives: top-dose signal change, negative = less light. actives 1.2% (n = 410,000). AID 1159524; active = well fitted falling curve with a large enough effect; inconclusive = small, poorly fitted or top-dose-only effect; inactive = no such curve, though single readings can be large or run the other way; tested in HEK293T cells; further: on the % scale 0 is the no-effect control and ±100 the full control effect; nearly all actives have a fitted effect of over 45% in size; luciferase light after 4 h
Cruzain inh noDet: blocks cruzain activity in detergent-free assay; P25779; Potency, µM, for the others: max response, negative = inhibition, actives largely listed as inhibitors; AID 1476; actives 2.3% (n = 200,000); purified cruzain, Z-FR-AMC fluorescence, no detergent;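 further: plate controls were enzyme without inhibitor for no effect and buffer without enzyme for full effect; nearly all actives have a fitted effect of over 40% in size; top concentration of the series not given in the record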
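Purified cruzain at 1.5 nM, pre-incubated 15 min with compound at room temperature in 100 mM sodium acetate pH 5.5, 5 mM DTT, 0.00005% Triton X-100. Reaction started with 2 uM Z-FR-AMC; AMC fluorescence increase over 60 s gives rate.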
Starred values were filed as active, the others as inactive; ? = inconclusive; · = not tested or not shown; [ ] = dose if it differs, or a comment. Unless noted, the call rests on the fitted dose curve; in most records, active means well fitted curve in the direction sought with a large enough effect; inconclusive means small, poorly fitted or top-dose-only effect, or another doubt; inactive means no such curve, though single readings can be large; an effect the other way counts as inactive or inconclusive. Potency means the concentration at half of the fitted maximal effect.

entry	Molecule	LASV entry inh	NS1 inh	MARV entry inh	Cruzain inh Det
1	CCCC(=O)Nc1c(O)c2ccccc2[nH]c1=O	4%	-14%	-9%[46.1 µM]	1.1%
2	O=c1cc(-c2ccccc2)nc(SCc2nc(-c3ccc(Cl)cc3)no2)[nH]1	14%[46.1 µM]	·	·	2.7%
3	Cc1onc(-c2c(Cl)cccc2Cl)c1C(O)c1ccc(F)cc1 (stereo not drawn)	?	-2%	-17%	·
4	CCn1cc(CN2CCC(n3nccc3NC(=O)c3ccccc3C)CC2)c(C)n1	2%	-13%	25%	·
5	O=C(CN1CCN(c2ccccc2F)CC1)c1ccc(O)cc1O	·	4%	·	·
6	CCc1ccc2oc(C(=O)N(Cc3ccc(N(C)C)cc3)Cc3ccco3)c(C)c2c1	?	·	1%[46.1 µM]	-6.8%
7	CCS(=O)(=O)NCCc1csc2nc(-c3ccc(OC)cc3)nn12	?	·	·	-1.5%
8	CCCc1nnc(NC(=O)C23CC4CC(CC(C4)C2)C3)s1	·	-2%	·	·
9	Cn1c(=O)c2sccc2n2c(CCCC(=O)NCc3ccccc3)nnc12	21%[46.1 µM]	·	·	1.7%
10	COc1ccc(NC(=O)C(=O)NCCN2CCN(C(=O)c3ccc(C)cc3)CC2)cc1	·	-12%	2%[46.1 µM]	·
11	O=C(COC(=O)c1ccc[nH]c1=O)NCCc1ccc(Cl)cc1Cl	·	2%	·	·
12	COCC(C)n1c(SCc2ccc(OC)c(F)c2)nc2ccccc2c1=O (stereo not drawn)	?	·	?	·

entry	RE007 growth inh	SARS PLP yeast	2A StopGo	Cruzain inh noDet
1	12%	14%	-13%	-13%
2	·	·	2%	-8%
3	3%	0%	?	·
4	-6%	0%	-12%	·
5	-7%	-4%	15%	·
6	·	·	0%	?
7	·	·	-3%	7%
8	-4%	1%	19%	·
9	·	·	0%	-10%
10	14%	-1%	-9%	·
11	19%	0%	31%[activator]	·
12	15%	-8%	-29%	·

Other structures follow.
entry	Molecule	LASV entry inh	NS1 inh	MARV entry inh	Cruzain inh Det
13	COC(=O)C1=C(N)Oc2cc(C)n(Cc3cccnc3)c(=O)c2C1c1ccc(OC)c(OC)c1OC (stereo not drawn)	-3%	-11%	18%	-5.9%
14	Cc1nc2c(-c3ccccc3)c(C)nn2c(C)c1CCC(=O)Nc1ccccc1F	?	·	-20%[46.1 µM]	-2.7%
15	CCN(c1ccc(NC(=O)COC(=O)c2ccc(C)c(S(=O)(=O)N3CCOCC3)c2)cc1)C(C)C	-3%	-11%	-9%	-8.6%
16	COCCn1c(C)cc(O)c(C(c2ccccc2)N2CCN(c3ccccc3F)CC2)c1=O (stereo not drawn)	?	·	·	1.6%
17	COC(=O)c1cn(CCC#N)nc1-c1ccc2ccccc2c1	0%	-10%	10%	·
18	CC(=O)c1cccc(NC(=O)N2CCCC2C(=O)NCc2ccccc2)c1 (stereo not drawn)	?	2%	-20%[46.1 µM]	0.8%
19	CCn1cc(C(=O)Nc2ccc(OC)c(OC)c2)c2cc(OC)c(OC)cc2c1=O	3%	0%	4%	1.9%
20	Cc1nn(CC(O)COc2ccc3c(c2)CCC3)c(C)c1C (stereo not drawn)	-29%	-40%	-16%	-3.6%
21	O=C(O)c1cccc2c1C(=O)N(Cc1ccccc1)C2	12%	-22%	7%	·
22	CCCCN(C)C(=O)c1nc2ccccn2c1CNCCCn1ncc2ccccc21	·	3%	·	·
23	O=c1[nH]c(=O)n(-c2ccc(F)cc2)c2c1C(C(F)(F)F)(C(F)(F)F)N=C(c1ccc(F)cc1)N2	?	-11%	?	-4.1%
24	COc1cc(/C=N/NC(=O)c2nnn(-c3nonc3N)c2C(C)C)ccc1OCc1ccccc1	·	-1%	·	·

entry	RE007 growth inh	SARS PLP yeast	2A StopGo	Cruzain inh noDet
13	-11%	6%	-11%	8%
14	·	·	?	-7%
15	-17%	·	-3%	-2%
16	·	·	-18%	-5%
17	0%	-1%	-18%	·
18	0%	13%	8%	12%
19	-7%	1%	-2%	?
20	-18%	-3%	-16%	7%
21	3%	0%	-11%	·
22	-4%	-1%	-20%	·
23	-16%	-2%	10µM*	2%
24	-10%	0%	?	·

From no. 2 as far as 11, copied from above:
entry	Molecule	LASV entry inh	NS1 inh	MARV entry inh	Cruzain inh Det
2	O=c1cc(-c2ccccc2)nc(SCc2nc(-c3ccc(Cl)cc3)no2)[nH]1	14%[46.1 µM]	·	·	2.7%
3	Cc1onc(-c2c(Cl)cccc2Cl)c1C(O)c1ccc(F)cc1 (stereo not drawn)	?	-2%	-17%	·
4	CCn1cc(CN2CCC(n3nccc3NC(=O)c3ccccc3C)CC2)c(C)n1	2%	-13%	25%	·
5	O=C(CN1CCN(c2ccccc2F)CC1)c1ccc(O)cc1O	·	4%	·	·
6	CCc1ccc2oc(C(=O)N(Cc3ccc(N(C)C)cc3)Cc3ccco3)c(C)c2c1	?	·	1%[46.1 µM]	-6.8%
7	CCS(=O)(=O)NCCc1csc2nc(-c3ccc(OC)cc3)nn12	?	·	·	-1.5%
8	CCCc1nnc(NC(=O)C23CC4CC(CC(C4)C2)C3)s1	·	-2%	·	·
9	Cn1c(=O)c2sccc2n2c(CCCC(=O)NCc3ccccc3)nnc12	21%[46.1 µM]	·	·	1.7%
10	COc1ccc(NC(=O)C(=O)NCCN2CCN(C(=O)c3ccc(C)cc3)CC2)cc1	·	-12%	2%[46.1 µM]	·
11	O=C(COC(=O)c1ccc[nH]c1=O)NCCc1ccc(Cl)cc1Cl	·	2%	·	·

entry	RE007 growth inh	SARS PLP yeast	2A StopGo	Cruzain inh noDet
2	·	·	2%	-8%
3	3%	0%	?	·
4	-6%	0%	-12%	·
5	-7%	-4%	15%	·
6	·	·	0%	?
7	·	·	-3%	7%
8	-4%	1%	19%	·
9	·	·	0%	-10%
10	14%	-1%	-9%	·
11	19%	0%	31%[activator]	·

(continued)
entry	Molecule	LASV entry inh	NS1 inh	MARV entry inh	Cruzain inh Det
25	Cc1cccc(NC(=O)Cn2c(=O)n(CCCCCC(=O)NCc3ccc4c(c3)OCO4)c(=O)c3sccc32)c1	3%[46.1 µM]	·	?	-3.0%
26	CCSc1ncc(Cl)c(C(=O)Nc2ccc(S(=O)(=O)N(C)c3ccccc3)cc2)n1	?	·	-19%[46.1 µM]	-5.3%
27	FC(F)(F)c1cc(-c2ccccc2)nc(N2CCCCCC2)n1	-9%	-8%	18%	5.8%
28	Cc1c(C)c(C)c(S(=O)(=O)Nc2ccc3[nH]c(=O)[nH]c3c2)c(C)c1C	9%	19%	-20%	·
29	Cc1nc2c(ncn2-c2ccccc2)c(=O)n1NC(=O)CN1CCCC1	·	0%	·	·
30	COc1ccc(COC(=O)c2[nH]c3c(c2C)C(=O)CC(c2ccc(OC)c(OC)c2)C3)cc1 (stereo not drawn)	-18%[46.1 µM]	·	?	-3.4%
31	COc1ccccc1CCC(=O)Nc1cc(S(=O)(=O)N2CCCCC2)ccc1N1CCN(C)CC1	0%[46.1 µM]	·	?	·
32	Cn1cccc1-c1cc(C(=O)N/N=C/c2cccc(O)c2)[nH]n1	?	·	9%[46.1 µM]	·
33	O=c1[nH][nH]c(C(F)(F)F)c1C=NCc1cccc(Cl)c1	-7%	-11%	?	-4.8%
34	CN(Cc1ccccc1)C(=O)CN1C(=O)c2ccc([N+](=O)[O-])cc2C1=O	1%[46.1 µM]	-12%	19%[46.1 µM]	·
35	CC(NC(=O)C(Cc1ccccc1)=NO)c1ccccc1 (stereo not drawn)	17%	·	?	·
36	Cc1cccc(-c2noc(CN(C(=O)c3ccc(C)c(C)c3)C(C)C)n2)c1	?	·	-16%[46.1 µM]	-5.1%

entry	RE007 growth inh	SARS PLP yeast	2A StopGo	Cruzain inh noDet
25	·	·	-4%	-15%
26	·	·	-5%	-24%
27	2%	3%	2%	-5%
28	0%	0%	-15%	·
29	25%	0%	-21%	·
30	·	·	?	?
31	17%	5%	-17%	·
32	-4%	1%	45%[activator]	·
33	3%	7%	-19%	-10%
34	-16%	0%	-4%	·
35	14%	·	15%	·
36	·	·	?	2%

Compounds listed so far that have two or more sulfur atoms, in the order listed:
entry	Molecule	LASV entry inh	NS1 inh	MARV entry inh	Cruzain inh Det
7	CCS(=O)(=O)NCCc1csc2nc(-c3ccc(OC)cc3)nn12	?	·	·	-1.5%
26	CCSc1ncc(Cl)c(C(=O)Nc2ccc(S(=O)(=O)N(C)c3ccccc3)cc2)n1	?	·	-19%[46.1 µM]	-5.3%

entry	RE007 growth inh	SARS PLP yeast	2A StopGo	Cruzain inh noDet
7	·	·	-3%	7%
26	·	·	-5%	-24%

No enrichment for hits, and some 4.7% of all compounds hit somewhere here.
